VDR inhibitor: blocks the human vitamin D receptor; P11473; Potency, µM, for inactives: max response, negative = inhibition, hits mostly inhibitors; 400,000 compounds, 0.93% hits; VDR-SRC2-3 peptide fluorescence polarization, 2 h; active means well fitted inhibition curve with a large enough effect; inconclusive means small, poorly fitted or top-dose-only effect, or another doubt; inactive means no such curve, though single readings can be large or run the other way; further: series mostly up to about 120 µM
Target sequence (P11473 whole entry, looked up): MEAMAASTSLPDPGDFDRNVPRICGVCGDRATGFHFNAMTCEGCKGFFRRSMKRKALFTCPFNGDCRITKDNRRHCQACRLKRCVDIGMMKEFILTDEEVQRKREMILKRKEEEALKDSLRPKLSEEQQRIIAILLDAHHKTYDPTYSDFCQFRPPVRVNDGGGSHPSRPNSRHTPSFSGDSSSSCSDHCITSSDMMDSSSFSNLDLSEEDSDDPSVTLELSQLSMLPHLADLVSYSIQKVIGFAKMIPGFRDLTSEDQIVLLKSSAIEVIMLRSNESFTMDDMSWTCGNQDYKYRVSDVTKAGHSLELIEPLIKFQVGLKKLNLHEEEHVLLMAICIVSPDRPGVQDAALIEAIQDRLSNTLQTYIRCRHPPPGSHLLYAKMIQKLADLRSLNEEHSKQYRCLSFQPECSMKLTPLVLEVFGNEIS
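After 23 nl compound addition and a short centrifugation, plates sat for 2 hours at ambient temperature; polarization of fluorescence then indicated loss of VDR binding to peptide SRC2-3.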
An asterisk follows results filed as active; ? = inconclusive; & = joins results of further samples. On the % scale 0 is the no-effect control and ±100 the full control effect; potency means the concentration at half of the fitted maximal effect. Not all compounds are listed; rates above refer to the full screens.

nr	canonical_smiles	VDR inhibitor
1	O=S(=O)(Nc1nc2ccccc2nc1NCC1CCCO1)c1cccc(Cl)c1 (centres undefined)	-10%
2	Cc1cc(C)c(S(=O)(=O)NCc2csc(-c3ccccc3)n2)c(C)c1	13%
3	COc1ccc(NC(=O)c2cc3cccc(OC)c3oc2=Nc2ccc(C(=O)O)cc2)cc1OC	3%
4	O=C(NNC(=O)C1CC1)c1ccccc1[N+](=O)[O-]	2%
5	Cc1ccc(NS(=O)(=O)c2cc(-c3n[nH]c(=O)c4ccccc34)ccc2C)cc1	-6%
6	Cc1cc(-c2cc(C(=O)O)c3ccccc3n2)c(C)s1	-17%
7	Cc1ccc(NC(=O)N2CCc3c(sc4c3CCCC4)C2c2ccccc2)cc1F (centres undefined)	-6%
8	COC(=O)c1ccc2c(c1)N(C)S(=O)(=O)c1cnc(SCC(=O)C(C)(C)C)nc1-2	-16%
9	Cc1ccc(CNC(=O)C2CCN(S(=O)(=O)c3c(C)noc3/C=C/N(C)C)CC2)cc1	4%
10	Cc1cc(C)c([N+](=O)[O-])cc1NCC(=O)N1CCN(c2ccccc2)CC1	-3%
11	CC(C)(C)NC(=O)C(c1ccncc1)N(Cc1ccco1)C(=O)c1ccc(-c2ccccc2)[nH]1 (centres undefined)	71µM*
12	COc1ccc(NC(=O)c2cc(C)nc3ccccc23)cc1S(=O)(=O)N1CCOCC1	-7%
13	CCc1nnc(NC(=O)c2ccc(S(=O)(=O)N(C)c3ccccc3)cc2)o1	-21%
14	O=C(O)C1OC(Oc2c(-c3ccc(O)c(O)c3)oc3cc(O)cc(O)c3c2=O)C(O)C(O)C1O (centres undefined)	-3%
15	COc1ccc(-c2csc3ncnc(N4CCN(c5ccccc5Cl)CC4)c23)cc1	-8%
16	CCOc1ccccc1NC(=O)C(OC(=O)c1ccc(CC)cc1)c1ccccc1 (centres undefined)	3%
17	CC1=C(C(=O)OCC(C)C)C(c2ccc(OCc3ccccc3)cc2)N2C(=O)CCSC2=N1 (centres undefined)	21%
18	COC(=O)c1ccc(C(NC(=O)OCc2ccccc2)/C(F)=C/[C@@H](C)C(=O)NCc2ccc(OC)c(OC)c2)cc1 (some centres undefined)	?
19	CCN(c1ncnc2c1cnn2-c1cccc(Cl)c1)C1CCCCC1	4%
20	COc1ccc(CC(=O)O/N=C(\N)c2cccc([N+](=O)[O-])c2)cc1	-6%
21	Cc1ccc2cc(C(=O)O)c(C)nc2c1	-6%
22	CC(=O)NC1C(=O)N(CCN2CCOCC2)c2ccc(Br)cc21 (centres undefined)	?
23	CCC(CC)C(=O)Nc1nnc(S(=O)(=O)N2CCc3ccccc32)s1	5%&3%
24	CCOC(=O)C1=C(C)NC(C)=C(C(=O)OCC)C1	12%&-5%
25	CC(=O)Nc1ccc2c(c1)CCCC2=O	-31%
26	CCCCCn1c(=NC(=O)c2ccco2)c(C(=O)OCC)cc2c(=O)n3ccccc3nc21	-12%&-11%
27	CC(C)(C)c1ccc(NC(=O)COC(=O)C2CCCC2)cc1	4%
28	COC(=O)CSc1nccc(-c2cccs2)n1	-13%
29	CC(C)(C)C(=O)N1CCN(c2ccc([N+](=O)[O-])cc2Cl)CC1	-16%
30	Cc1nc(-c2ccc3c(c2)OCO3)cs1	0%

Continued, starting with the last 4 of the part before.
nr	canonical_smiles	VDR inhibitor
27	CC(C)(C)c1ccc(NC(=O)COC(=O)C2CCCC2)cc1	4%
28	COC(=O)CSc1nccc(-c2cccs2)n1	-13%
29	CC(C)(C)C(=O)N1CCN(c2ccc([N+](=O)[O-])cc2Cl)CC1	-16%
30	Cc1nc(-c2ccc3c(c2)OCO3)cs1	0%
31	CCCc1ccc(OCC(=O)O)cc1	10%
32	O=c1c(Cl)c(N/N=C/c2ccc(Cl)cc2)cnn1-c1ccccc1	2%
33	N#Cc1c2n(c3c(=O)n(Cc4ccccc4)cnc13)CCCC2	-12%
34	CC(C)c1ccc(C2(C)NC(=O)N(CC(=O)NC3CCCC(C)C3C)C2=O)cc1 (centres undefined)	-17%
35	Cc1cc(C)n(-c2nc3ccccc3nc2N2CCN(C(=O)c3ccc(F)cc3)CC2)n1	19%
36	CC(=NNC(=O)c1cccc(S(=O)(=O)N2CCOCC2)c1)c1ccc(Cl)cc1	1%
37	COc1ccc(S(=O)(=O)N(CCCN2CCCC2=O)Cc2cc3cc(C)c(C)cc3[nH]c2=O)cc1	7%
38	O=C(NCc1ccco1)c1nn(-c2ccccc2)c(=O)c2ccccc12	12%
39	CCCCN(C(=O)c1cc2c(s1)CCCCC2)c1c(N)n(CC(C)C)c(=O)[nH]c1=O	0%
40	CCn1c(SCC(=O)NC2CCCC2)nnc1-c1ccoc1C	5%
41	O=C(CSc1nc2c(c(C(F)(F)F)n1)CCc1ccccc1-2)NCc1ccco1	-2%
42	COc1nc(-c2cccs2)cc(-c2ccc(C)cc2)c1C#N	4%
43	CC[N+]1(C)CCC(O)(c2ccc(OC)cc2)C(C(=O)c2ccc(OC)cc2)C1 (centres undefined)	?
44	O=S(=O)(c1ccc(Br)cc1F)N1CCCCC1CCO (centres undefined)	0%
45	COc1ccc(NCc2cccn2-c2nnc(N3CCC(C)CC3)s2)c(OC)c1	-4%
46	CCOc1cc(/C=N\NC(=O)Cn2nc([N+](=O)[O-])cc2C)ccc1OCc1cccc2ccccc12	-3%
47	COc1ccccc1CNC(=O)c1cc(Sc2cccc(Cl)c2)nc2ccccc12	0%
48	C/C(=N\NS(=O)(=O)c1ccc([N+](=O)[O-])cc1)c1ccc(NC(=O)c2ccco2)cc1	-20%
49	CCc1ccc(NC(=O)CSc2nnc3[nH]c(=O)cc(-c4ccccc4)n23)cc1	10%
50	COc1ccc(N=Cc2oc3ccc4ccccc4c3c2O)cc1	5%
51	Cc1ccc(/C([O-])=C(/C(=S)Nc2ccc(SC(F)F)cc2)[n+]2ccccc2)cc1[N+](=O)[O-]	?
52	CN1CCN(c2ccc(S(=O)(=O)N3CCOCC3)cc2NC(=O)COc2ccc(F)cc2Cl)CC1	8%
53	CCOC(=O)c1cccc(NC(=O)CCc2c(C)nc3cc(-c4ccc(Cl)cc4)nn3c2C)c1	-6%
54	CCn1nc(NS(=O)(=O)c2ccc([N+](=O)[O-])cc2)c2cc3cc(C)ccc3nc21	-17%
55	CC(C)c1ccc(NC(=O)CN2C(=O)c3ccccc3S2(=O)=O)cc1	11%
56	COc1ccc(CCNC(=O)c2cc(COc3c(F)cccc3F)on2)c(OC)c1	-4%
57	O=C(NCCC1=CCCCC1)C1CCC(=O)N(Cc2ccc(Cl)cc2)C1 (centres undefined)	20%
58	COC(=O)c1ccc(-n2c(/C=C/c3cc(OC)c(OC)c(OC)c3)nc3cc(Cl)ccc3c2=O)cc1	11%
59	Cc1nc(-c2ccc(S(=O)(=O)N3CCCCCC3)cc2)cs1	-4%
60	Nc1ncnc2c1ncn2C1CCCO1 (centres undefined)	5%&-5%

Entries by screen from the list.
Compounds 50–58 in VDR inhibitor read 5%, ?, 8%, -6%, -17%, 11%, -4%, 20%, 11%

Shown field by field: part of the list above.
43	CC[N+]1(C)CCC(O)(c2ccc(OC)cc2)C(C(=O)c2ccc(OC)cc2)C1 (centres undefined)
  VDR inhibitor: ?
44	O=S(=O)(c1ccc(Br)cc1F)N1CCCCC1CCO (centres undefined)
  VDR inhibitor: 0%
45	COc1ccc(NCc2cccn2-c2nnc(N3CCC(C)CC3)s2)c(OC)c1
  VDR inhibitor: -4%
46	CCOc1cc(/C=N\NC(=O)Cn2nc([N+](=O)[O-])cc2C)ccc1OCc1cccc2ccccc12
  VDR inhibitor: -3%

Remaining list, next part:
nr	canonical_smiles	VDR inhibitor
61	O=C(c1cccc(-c2ccccc2)c1)N1CC[C@@H](N2CCC(O)CC2)[C@H](O)C1	6%
62	Cc1c(NC(=S)Nc2ccc(Cl)cc2)c(=O)n(-c2ccccc2)n1C	-3%
63	C=CCSc1nc2ccccc2n1C(=O)/C=C/c1ccc(OC)c(OC)c1	8%
64	COc1cc(NS(=O)(=O)c2ccc(NC(=S)NC(=O)/C=C/c3ccc(F)cc3)cc2)ncn1	-10%
65	CC(C)CNC(=O)c1ccccc1C(=O)NC1(C(=O)NCC(C)C)CCCC1	10%
66	COc1ccc(CC2CC(=O)N(c3ccc(C)cc3)C2=O)cc1 (centres undefined)	-17%
67	COc1ccc(NC(=O)c2cc3c(Cl)nc4ccccc4c3s2)cc1OC	-5%
68	O=C(Nc1ccc(-c2nc3ccccc3[nH]2)cc1)c1ccco1	3%&-16%
69	Cc1csc(NC(=O)c2nc3nc(C)cc(C)n3n2)n1	10%
70	CCOc1ccc2ccccc2c1/C=N/n1cncn1	9%
71	COC(=O)C(Cc1ccccc1)NC(=O)CNC(=O)c1ccccc1OC (centres undefined)	-1%
72	O=c1c([N+](=O)[O-])c(N2CCOCC2)c2ccccc2n1-c1ccccc1	-5%
73	CC12CCC(C(=O)NCC3CCCO3)(OC1=O)C2(C)C (centres undefined)	-1%
74	CC(=O)Nc1cccc(C(=O)Nc2ccc(S(=O)(=O)NC3=NCCCCC3)cc2)c1	6%
75	O=C(O)CSC1c2ccccc2C(=O)N1Cc1ccccc1 (centres undefined)	1%
76	CC(C)Oc1ccc(CNC2CCOC(C)(C)C2)cc1 (centres undefined)	0%
77	CCC(C)c1ccccc1N=Cc1ccc2c(c1)OCO2 (centres undefined)	-4%
78	COc1ccc(N2C(=O)CC(NNC(=O)c3cccnc3)C2=O)cc1 (centres undefined)	-15%
79	CC(C)(C)c1ccc(-n2ncc3c2CCCC3NC(=O)CCn2cncn2)cc1 (centres undefined)	-3%
80	O=C(Nc1ccc(S(=O)(=O)Nc2nccs2)cc1)c1cnc(Cl)c(Cl)c1	16%
81	CSc1cccc(NC(=S)N2CCCN(Cc3ccc(F)cc3)C2)c1	2%
82	CN(C)C=Nc1ncc2c3ccccc3n(Cc3ccccc3)c2c1C#N	10%
83	O=C(NNC(=O)c1ccc2ccccc2n1)c1ccc(O)cc1	12%
84	COc1ccc(CCNc2nc(-c3ccccc3OC)cc(C(F)(F)F)n2)cc1OC	7%
85	COCCCn1c(Cc2csc(Nc3ccccc3)n2)nnc1SCC(N)=O	8%
86	Cc1sc(NC(=O)c2ccccc2F)c(CN2CCCCC2C)c1C (centres undefined)	0%
87	CCOC(=O)CN1CC23C=CC(O2)C(C(=O)NCc2ccc(C)cc2)C3C1=O (centres undefined)	-3%
88	CCOc1ccc(OCc2cccc(C(=O)Nc3ccc(CN4CCCCC4)cc3)c2)cc1	-1%
89	CCOc1ccc2[nH]c3c(NCCO)ncnc3c2c1	-3%
90	C=C1CCN([C@@H](CC(C)C)C(=O)NCc2ccc(Cl)cc2)S(=O)(=O)c2ccccc21	5%
91	O=C(NCCN1CCN(C(=O)c2ccc(Br)cc2)CC1)c1ccc(Br)cc1	4%
92	CCOc1ccc(CCn2c3c(c(=O)[nH]c2=O)C(NC(=O)c2ccccc2)(C(F)(F)F)C(=O)N3)cc1OCC (centres undefined)	-5%
93	Cc1ccc2c(c1)N(Cc1ccccn1)C(=O)C(C)O2 (centres undefined)	-8%
94	CCC(C)n1cnc2c(c1=O)c1nc3ccccc3nc1n2Cc1ccccc1OC (centres undefined)	6%
95	O=C1C(Nc2ccccc2)=CC(=O)c2ncccc21	?
96	CC(Sc1nc(-c2ccccc2)cc(C(F)(F)F)n1)C(=O)Nc1sc2c(c1C(N)=O)CCC2 (centres undefined)	2%
97	CC(C)n1cc(/C=N/Nc2ccc(C(=O)O)cc2)c2ccccc21	-20%
98	Cc1noc(C)c1NC(=O)N(C)C[C@H]1Oc2ccc(NC(=O)Cn3cnnn3)cc2C(=O)N([C@H](C)CO)C[C@@H]1C	13%
99	COc1cccc(NC(=O)COC(=O)C2C3CC4OC(=O)C2C4C3)c1 (centres undefined)	-4%
100	Cc1ccc(CN2CCN(C(=O)c3ccco3)CC2)cc1	17%
101	Cc1nc2nc[nH]n2c(=O)c1NS(=O)(=O)c1ccc(C(C)(C)C)cc1	-8%
102	CSc1nc2ccc(S(=O)(=O)N3CCCC3)cc2s1	6%
103	COc1ccc(-c2nnc(NC(=O)C3CC3)o2)cc1	1%
104	CN(CC(=O)N1CCc2ccccc21)S(=O)(=O)c1cccs1	23%
105	O=C(CCC(=O)NC1CCCCC1)Nc1cccnc1	-27%
106	O=C(NCCCN1CCCC1=O)c1cccc(C(F)(F)F)c1	9%
107	COCC(=O)Nc1c(C(=O)Nc2ccc3c(c2)OCO3)oc2ccccc12	-20%
108	COc1ccc(S(=O)(=O)N2CCCCCC2)cc1NC(=O)CN1C(=O)NC(C)(c2ccccc2)C1=O (centres undefined)	-8%
109	COc1ccc(NC(=O)CSc2nc3ccccc3n2-c2ccccc2)c([N+](=O)[O-])c1	-2%
110	COc1ccc(NC(C)=[N+](C)CCNS(=O)(=O)c2ccc(Cl)cc2)cc1	21%
111	COc1ccc(S(=O)(=O)N2CCC3(CC2)OCCN3S(=O)(=O)c2cccs2)cc1	-1%
112	CCc1c(C)nc(SCC(=O)Nc2c(C)n(C)n(-c3ccccc3)c2=O)[nH]c1=O	11%
113	COc1ccc(Br)cc1/C=C/C(=O)NCC(=O)O	-21%
114	Cc1cc(OC(C)C(=O)N(Cc2ccc(N(C)C)cc2)Cc2ccco2)ccc1Cl (centres undefined)	14%
115	CC1(C)Cc2c(sc3nc(-c4cccs4)n(N)c(=O)c23)CO1	13%
116	O=C(/C=C/c1ccco1)NC(=S)Nc1ccc(C(=O)O)cc1	-10%

Assay outcomes from PubChem BioAssay.
